# Vaccinia mCherry – vaccinia inhibition (mCherry reporter). Vaccinia virus mCherry reporter infection, fluorescence; about a quarter of the inactives have no number. Potency, µM (doses to about 36.5 µM), without a hit: at the highest dose activity change, negative = inhibition, actives largely listed as inhibitors. 310,000 tested, 0.63% active. AID 720579; active = well fitted inhibition curve with a large enough effect; inconclusive = small, poorly fitted or top-dose-only effect; inactive = no such curve, though single readings can be large or run the other way; tested in A549 cells; further: nearly all actives have a fitted effect of over 35% in size; inactives centre near -10
# Vaccinia Venus – inhibitors of vaccinia virus (Venus reporter). Potency, µM (series often up to 36.5 µM), for inactives: at the top dose activity change, negative = inhibition, usual class: inhibitors. Vaccinia virus Venus reporter expression, fluorescence. 330,000 tested, 0.46% active. AID 720580; active means well fitted inhibition curve with a large enough effect; inconclusive means small, poorly fitted or top-dose-only effect; inactive means no such curve, though single readings can be large or run the other way; tested in A549 cells; further: nearly all actives have a fitted effect of over 30% in size; inactives centre near -10
# * hit, by the source's call; i = inactive; ? = inconclusive; . = not tested or not shown; [ ] = another dose, or the depositor's remark. On the % scale 0 is the no-effect control and ±100 the full control effect; potency means the concentration at half of the fitted maximal effect.
CCOC(=O)C1=C(C)NC(=O)NC1
  Vaccinia mCherry: .
  Vaccinia Venus: -20%
CCCCn1c(CCC(=O)O)nc2cc(S(=O)(=O)N(C)C)ccc21
  Vaccinia mCherry: i
  Vaccinia Venus: 1%
CCOc1ccccc1NC(=O)CN1C(=O)CSC(C)C1=O (centres undefined)
  Vaccinia mCherry: -10%
  Vaccinia Venus: -18%
COc1ccc(N2CCN(C(c3cc(OC)ccc3OC)c3nnnn3Cc3ccco3)CC2)cc1 (centres undefined)
  Vaccinia mCherry: -16%
  Vaccinia Venus: -7%
C=CCOC(=O)C1=C[C@@H](c2ccc(C(F)(F)F)cc2)C[C@@H](OCCCCO)O1
  Vaccinia mCherry: -6%
  Vaccinia Venus: -15%
O=C(CC(C(=O)O)c1ccc(F)cc1)c1ccc(Cl)cc1 (centres undefined)
  Vaccinia mCherry: i
  Vaccinia Venus: -11%
O=C(NCC1CCCCC1)c1cc(S(=O)(=O)N2CCOCC2)ccc1F
  Vaccinia mCherry: -12%
  Vaccinia Venus: -1%
Cc1ccc(C2OCC(C)([N+](=O)[O-])CO2)cc1 (centres undefined)
  Vaccinia mCherry: -15%
  Vaccinia Venus: -6%
Cc1cc(C)nc(Sc2ncnc(N)c2[N+](=O)[O-])n1
  Vaccinia mCherry: -4%
  Vaccinia Venus: -6%
COC(=O)c1ccc(-c2noc(CN(C)CC3CCCCO3)n2)cc1 (centres undefined)
  Vaccinia mCherry: -12%
  Vaccinia Venus: -20%
CCOC(=O)Cn1c(=O)oc2cc(S(=O)(=O)N3CCCC(C(=O)OCC)C3)ccc21 (centres undefined)
  Vaccinia mCherry: 3%
  Vaccinia Venus: -7%
Cc1cc(C)c(S(=O)(=O)NCCc2ccccc2)c(C)c1
  Vaccinia mCherry: -38%
  Vaccinia Venus: ?
CCCCn1c(O)c(C(C)=Nc2ccc(OCC)cc2)c(=O)[nH]c1=O
  Vaccinia mCherry: .
  Vaccinia Venus: ?
O=C(CN1CCN(c2ncccn2)CC1)Nc1ccccc1C(F)(F)F
  Vaccinia mCherry: -13%
  Vaccinia Venus: -3%
COC(=O)c1cc2ccccc2c([N+](=O)[O-])c1O
  Vaccinia mCherry: i
  Vaccinia Venus: 0%
CCC1(CC)C(=O)N(C)C(=O)NC1=Nc1ccccc1
  Vaccinia mCherry: -13%
  Vaccinia Venus: -1%
COCc1c(C(=O)Nc2cccc(S(=O)(=O)N3CCCCC3)c2)oc2ccccc12
  Vaccinia mCherry: -15%
  Vaccinia Venus: -26%
Cn1c(=O)[nH]c(=O)c2c1nc(N1CCCCCC1)n2CCCSc1nc2ccccc2o1
  Vaccinia mCherry: -10%
  Vaccinia Venus: -3%
CC(=O)N1CCN(S(=O)(=O)c2ccc(S(=O)(=O)N3CCCC(C)C3)cc2)CC1 (centres undefined)
  Vaccinia mCherry: -2%
  Vaccinia Venus: 3%
Cc1cc(Br)ccc1-n1[nH]c(C)c(C=Nc2cccc3nsnc23)c1=O
  Vaccinia mCherry: -24%
  Vaccinia Venus: -20%
O=C(CCCO)N/N=C/c1ccccc1[N+](=O)[O-]
  Vaccinia mCherry: -11%
  Vaccinia Venus: -5%
Cc1ccc(-c2ccc(CCC(=O)O)n2-c2ccc(O)cc2)cc1
  Vaccinia mCherry: -16%
  Vaccinia Venus: -12%
COc1ccc(CNC(=O)c2cnn3c(C(F)F)cc(C)nc23)cc1
  Vaccinia mCherry: -21%
  Vaccinia Venus: -18%
CC(C)Cc1nc2n[nH]c(N)c2c2c1CCCC2
  Vaccinia mCherry: .
  Vaccinia Venus: -3%
CC(C)C[C@H](NC(=O)c1[nH]cnc1C(=O)Nc1ccc(CNC(=O)OC(C)(C)C)cc1)C(=O)OCc1ccccc1
  Vaccinia mCherry: i
  Vaccinia Venus: -11%

O=C(O)C(F)=C(c1ccccc1)c1ccccc1
  Vaccinia mCherry: -3%
  Vaccinia Venus: -7%
COCCCN=C(c1ccco1)n1c(=S)nc(-c2ccco2)n(CCCOC)c1=S
  Vaccinia mCherry: -6%
  Vaccinia Venus: 4%
Cc1ccc(/C(N)=N/OC(=O)c2ccc3c(c2)OCO3)cc1
  Vaccinia mCherry: -1%
  Vaccinia Venus: 3%
COCCn1c(Cc2ccccc2)nnc1SCC(=O)NC1CCCCC1
  Vaccinia mCherry: i
  Vaccinia Venus: 0%
CC/C(=N\NC(=O)c1csc(C)c1C)c1cccs1
  Vaccinia mCherry: -1%
  Vaccinia Venus: -20%
COC(=O)c1cc(=O)n(Cc2cccs2)c(=Nc2ccc(F)cc2)s1
  Vaccinia mCherry: -5%
  Vaccinia Venus: ?
O=C(COC(=O)/C=C/c1ccc(OC(F)F)cc1)NC1CCCCC1
  Vaccinia mCherry: -18%
  Vaccinia Venus: -10%
COc1ccc(NC(=O)c2cc(-c3cc(F)ccc3OC(C)C)n[nH]2)c(C)c1
  Vaccinia mCherry: ?
  Vaccinia Venus: -16%
CCCCC1CCC(C(=O)N(CCC(C)C)c2c(N)n(CCCC)c(=O)[nH]c2=O)CC1 (centres undefined)
  Vaccinia mCherry: 16µM*
  Vaccinia Venus: 11µM*
COc1ccc(NC(=O)N2CCN(S(C)(=O)=O)CC2)cc1
  Vaccinia mCherry: 3%
  Vaccinia Venus: -5%
Cc1nc2ccc(S(=O)(=O)NCC(=O)N3CCC(N4CCCCC4)CC3)cc2s1
  Vaccinia mCherry: -2%
  Vaccinia Venus: -14%
Cc1ccnc(NC(=O)c2ccco2)n1
  Vaccinia mCherry: -3%
  Vaccinia Venus: -15%
COc1ccc(CC(=O)NCC(=O)N/N=C/c2cc(Br)ccc2OC)cc1
  Vaccinia mCherry: -20%
  Vaccinia Venus: -3%
COc1ccccc1C1C(C(=O)c2ccc(C)o2)=C(O)C(=O)N1c1cc(C)on1 (centres undefined)
  Vaccinia mCherry: -10%
  Vaccinia Venus: -19%
C/C(=N\NC(=O)c1ccc(CSc2nncn2C)cc1)c1ccc(C#N)cc1
  Vaccinia mCherry: -9%
  Vaccinia Venus: -8%
CCCCN(C(=O)CSc1nnc(-c2ccc(Cl)cc2)o1)c1c(N)n(CC(C)C)c(=O)[nH]c1=O
  Vaccinia mCherry: 22%
  Vaccinia Venus: -14%
O=C(CCCN1C(=O)/C(=C/c2ccccc2Cl)SC1=S)NNC(=O)c1ccncc1
  Vaccinia mCherry: i[7.34 µM]
  Vaccinia Venus: 2%[7.34 µM]
Cc1ccsc1CNC1C2CC3CC(C2)CC1C3 (centres undefined)
  Vaccinia mCherry: i
  Vaccinia Venus: 3%
O=C(C[C@@H]1C/C=C\CCC(=O)O[C@H](c2ccccc2)CNC1=O)N[C@H](CO)Cc1ccccc1
  Vaccinia mCherry: 0%
  Vaccinia Venus: -7%
C(=N\n1cnnc1)/C1CCCCC1
  Vaccinia mCherry: -15%[1.46 µM]
  Vaccinia Venus: -14%
COc1cccc(C(C(=O)NC(C)(C)C)N(Cc2ccc(F)cc2)C(=O)CCC(=O)Nc2cc(C)on2)c1OC (centres undefined)
  Vaccinia mCherry: -25%
  Vaccinia Venus: -20%
COc1cccc(/C=N/NC(=O)c2ccccc2)c1OS(=O)(=O)c1ccccc1
  Vaccinia mCherry: -12%
  Vaccinia Venus: -16%
COc1ccc(C2=CC(c3ccc(OC)c(OC)c3)c3c(c4ccccc4oc3=O)O2)cc1OC (centres undefined)
  Vaccinia mCherry: -15%
  Vaccinia Venus: -30%
O=C(Cc1ccccc1)N1CCNCC1
  Vaccinia mCherry: -13%
  Vaccinia Venus: -7%
O=C1NC(=S)N/C1=C/c1cc([N+](=O)[O-])ccc1O
  Vaccinia mCherry: -8%
  Vaccinia Venus: 11%

Cc1cc(C(=O)N/N=C/c2ccc([N+](=O)[O-])s2)c2ccccc2n1
  Vaccinia mCherry: 10µM*
  Vaccinia Venus: 28µM*
Cc1ccc(O)c(/C=N/NC(=O)c2[nH]ncc2Br)c1
  Vaccinia mCherry: -13%
  Vaccinia Venus: -14%
CSc1ccccc1NC(=O)c1cnc2sc(C)cn2c1=O
  Vaccinia mCherry: -15%
  Vaccinia Venus: -4%
CCOc1ccc(NC(=O)COc2ccc3c(c2)OCO3)cc1
  Vaccinia mCherry: ?
  Vaccinia Venus: -1%
Cc1cccc(C(=O)NCC(=O)OC(C)C(=O)Nc2ccc(Cl)cn2)c1 (centres undefined)
  Vaccinia mCherry: -16%
  Vaccinia Venus: -10%
Cc1c(C(N)=O)sc2ncn(CC(=O)NCCc3ccccc3)c(=O)c12
  Vaccinia mCherry: -12%
  Vaccinia Venus: 12%
CCOC(=O)Cc1csc(NC(=O)CCSc2ccccc2)n1
  Vaccinia mCherry: -1%
  Vaccinia Venus: -9%
C[n+]1cccc(C(=O)N/N=C/c2ccc3c(c2)OCO3)c1
  Vaccinia mCherry: -26%
  Vaccinia Venus: -2%
CCCCOc1ccc(/C=C/C(=O)OCC(=O)N2CC(=O)Nc3ccccc32)cc1OCC
  Vaccinia mCherry: -21%
  Vaccinia Venus: ?
O=C(Nc1cccc(-c2nc3cccnc3s2)c1)c1cccc(Br)c1
  Vaccinia mCherry: -12%
  Vaccinia Venus: -8%
Cc1ccc(Nc2ncnc3sc(C)c(C)c23)cc1C
  Vaccinia mCherry: -1%
  Vaccinia Venus: -15%
COc1ccc(CCNC(=O)c2cc3c(=O)n4ccccc4nc3n(CC3CCCO3)c2=N)cc1OC (centres undefined)
  Vaccinia mCherry: -9%
  Vaccinia Venus: 6%
Cc1ccccc1OCC(=O)NCC1CCCO1 (centres undefined)
  Vaccinia mCherry: i
  Vaccinia Venus: -7%
O=C1CSC(=Nc2ccccc2)N1
  Vaccinia mCherry: -4%
  Vaccinia Venus: 5%
CCCc1cc(NCc2ccccn2)n2nc(C)c(-c3ccccc3)c2n1
  Vaccinia mCherry: -26%
  Vaccinia Venus: -26%
O=C(NCCCN1CCOCC1)c1cccc(S(=O)(=O)Nc2ccccc2Cl)c1
  Vaccinia mCherry: -19%
  Vaccinia Venus: -22%
O=C1CC(=O)N(Cc2ccccc2)C(=O)N1CCCCCCN1C(=O)CC(=O)N(Cc2ccccc2)C1=O
  Vaccinia mCherry: i[7.34 µM]
  Vaccinia Venus: 4%[7.34 µM]
CSc1ccc(CN2CCSCC2)cc1
  Vaccinia mCherry: i
  Vaccinia Venus: -10%

# Already shown: entries from further up.
CCOC(=O)C1=C(C)NC(=O)NC1
  Vaccinia mCherry: .
  Vaccinia Venus: -20%
CCCCn1c(CCC(=O)O)nc2cc(S(=O)(=O)N(C)C)ccc21
  Vaccinia mCherry: i
  Vaccinia Venus: 1%
CCOc1ccccc1NC(=O)CN1C(=O)CSC(C)C1=O (centres undefined)
  Vaccinia mCherry: -10%
  Vaccinia Venus: -18%
COc1ccc(N2CCN(C(c3cc(OC)ccc3OC)c3nnnn3Cc3ccco3)CC2)cc1 (centres undefined)
  Vaccinia mCherry: -16%
  Vaccinia Venus: -7%
C=CCOC(=O)C1=C[C@@H](c2ccc(C(F)(F)F)cc2)C[C@@H](OCCCCO)O1
  Vaccinia mCherry: -6%
  Vaccinia Venus: -15%
O=C(CC(C(=O)O)c1ccc(F)cc1)c1ccc(Cl)cc1 (centres undefined)
  Vaccinia mCherry: i
  Vaccinia Venus: -11%
O=C(NCC1CCCCC1)c1cc(S(=O)(=O)N2CCOCC2)ccc1F
  Vaccinia mCherry: -12%
  Vaccinia Venus: -1%
Cc1ccc(C2OCC(C)([N+](=O)[O-])CO2)cc1 (centres undefined)
  Vaccinia mCherry: -15%
  Vaccinia Venus: -6%
Cc1cc(C)nc(Sc2ncnc(N)c2[N+](=O)[O-])n1
  Vaccinia mCherry: -4%
  Vaccinia Venus: -6%
COC(=O)c1ccc(-c2noc(CN(C)CC3CCCCO3)n2)cc1 (centres undefined)
  Vaccinia mCherry: -12%
  Vaccinia Venus: -20%
CCOC(=O)Cn1c(=O)oc2cc(S(=O)(=O)N3CCCC(C(=O)OCC)C3)ccc21 (centres undefined)
  Vaccinia mCherry: 3%
  Vaccinia Venus: -7%
Cc1cc(C)c(S(=O)(=O)NCCc2ccccc2)c(C)c1
  Vaccinia mCherry: -38%
  Vaccinia Venus: ?
CCCCn1c(O)c(C(C)=Nc2ccc(OCC)cc2)c(=O)[nH]c1=O
  Vaccinia mCherry: .
  Vaccinia Venus: ?
O=C(CN1CCN(c2ncccn2)CC1)Nc1ccccc1C(F)(F)F
  Vaccinia mCherry: -13%
  Vaccinia Venus: -3%
COC(=O)c1cc2ccccc2c([N+](=O)[O-])c1O
  Vaccinia mCherry: i
  Vaccinia Venus: 0%
CCC1(CC)C(=O)N(C)C(=O)NC1=Nc1ccccc1
  Vaccinia mCherry: -13%
  Vaccinia Venus: -1%
COCc1c(C(=O)Nc2cccc(S(=O)(=O)N3CCCCC3)c2)oc2ccccc12
  Vaccinia mCherry: -15%
  Vaccinia Venus: -26%
Cn1c(=O)[nH]c(=O)c2c1nc(N1CCCCCC1)n2CCCSc1nc2ccccc2o1
  Vaccinia mCherry: -10%
  Vaccinia Venus: -3%
CC(=O)N1CCN(S(=O)(=O)c2ccc(S(=O)(=O)N3CCCC(C)C3)cc2)CC1 (centres undefined)
  Vaccinia mCherry: -2%
  Vaccinia Venus: 3%
Cc1cc(Br)ccc1-n1[nH]c(C)c(C=Nc2cccc3nsnc23)c1=O
  Vaccinia mCherry: -24%
  Vaccinia Venus: -20%
O=C(CCCO)N/N=C/c1ccccc1[N+](=O)[O-]
  Vaccinia mCherry: -11%
  Vaccinia Venus: -5%
